Bioassay records from PubChem BioAssay.
Rce1 inhib = yeast Ras-converting enzyme inhibition | Q03530 | AID 2563 | hit rate 0.27% among 290,000 | yeast membranes, quenched prenylated peptide cleavage fluorescence | calls only;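 active = fall in fluorescence gain of 50% or more versus controls, with final raw signal at or below 3038400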;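 note: plate controls were neutral control wells for no effect and wells lacking membranes for full effect; tested at 10 µM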
Target sequence (Q03530 whole entry, looked up): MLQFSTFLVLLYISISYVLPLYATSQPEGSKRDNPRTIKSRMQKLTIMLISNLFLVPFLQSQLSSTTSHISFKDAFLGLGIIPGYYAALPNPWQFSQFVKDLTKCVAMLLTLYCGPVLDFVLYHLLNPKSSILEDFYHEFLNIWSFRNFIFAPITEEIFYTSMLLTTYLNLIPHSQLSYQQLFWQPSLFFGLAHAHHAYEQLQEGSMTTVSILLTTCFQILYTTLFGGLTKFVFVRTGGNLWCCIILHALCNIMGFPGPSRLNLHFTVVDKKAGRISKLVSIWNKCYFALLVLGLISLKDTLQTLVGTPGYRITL
UUG fidelity = alters start codon recognition fidelity in yeast | activity score, % at 18.7 µM | S. cerevisiae UUG-firefly luciferase reporter, luminescence/redox ratio | hit rate 0.13% among 350,000;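 active = replicate mean at a twofold rise or more, about +100% in these data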;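 note: firefly luciferase made from a UUG start codon reports start codon fidelity; reporter light over untreated wells divided by growth signal over untreated wells; some hits fall short of that in this replicate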
eIF4H inh = inhibitors of RNA binding by human eIF4H. Q15056. eIF4H fluorescence polarization binding assay. inhibition, % at 35 µM. hit rate 0.94% among 290,000;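 active = 50% or more with normal probe brightness, or confirmed in later tests; about a fifth of its hits are not listed in these tables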;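 note: calls also rest on retests at 20 µM and on dose response follow-up; 0% = protein and probe with vehicle and 100% = probe without protein; strong numbers were not always called active; many hits fall short of the cut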
PABP FP inh = blocks human PABP binding to poly(A) RNA | P11940 | fluorescence polarization | inhibition, % at 35 µM | hit rate 1% among 290,000 | AID 2014;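 active = 50% or more with normal probe brightness, or confirmed in later tests; about a fifth of its hits are not listed in these tables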;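 note: calls also rest on retests at 20 µM and on dose response follow-up; controls were probe without protein and protein plus probe with vehicle; some compounds called inactive have numbers as strong as hits; many hits fall short of the cut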
Target sequence (P11940 whole entry, looked up): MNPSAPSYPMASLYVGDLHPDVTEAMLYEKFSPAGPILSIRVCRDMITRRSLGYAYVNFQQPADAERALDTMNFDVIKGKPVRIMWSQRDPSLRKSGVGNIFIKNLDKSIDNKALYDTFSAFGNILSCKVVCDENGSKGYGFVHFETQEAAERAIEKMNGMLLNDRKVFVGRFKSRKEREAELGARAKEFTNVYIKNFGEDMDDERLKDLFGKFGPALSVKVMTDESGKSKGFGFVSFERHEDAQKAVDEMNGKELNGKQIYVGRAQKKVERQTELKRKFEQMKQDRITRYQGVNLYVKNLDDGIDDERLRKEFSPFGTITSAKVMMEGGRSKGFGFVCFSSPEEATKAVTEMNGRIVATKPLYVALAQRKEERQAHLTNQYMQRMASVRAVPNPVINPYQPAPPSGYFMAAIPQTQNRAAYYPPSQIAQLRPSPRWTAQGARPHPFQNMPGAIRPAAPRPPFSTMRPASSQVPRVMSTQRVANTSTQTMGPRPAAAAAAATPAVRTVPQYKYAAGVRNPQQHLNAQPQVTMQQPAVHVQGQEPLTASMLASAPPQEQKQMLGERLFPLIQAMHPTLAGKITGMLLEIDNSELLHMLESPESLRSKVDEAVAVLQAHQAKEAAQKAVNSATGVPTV
Env fusion inh = blocks HIV Env-driven cell-cell fusion | inhibition, % at 12.3 µM | hit rate 1.1% among 360,000 | AID 651610 | HeLa-JRFL Env/CEM21 cell fusion, luciferase;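 active = mean replicate inhibition score of at least 50 and every replicate individually at or above 50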;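 note: 0% = plate neutral controls and 100% = maraviroc near 300 nM; one replicate is shown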
CSC inhib = cancer stem cell inhibition; cancer stem cell-like cells viability, luminescence; inhibition, % at 7.5 µM; hit rate 1.1% among 300,000; AID 2717;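 active = mean at 75% or more and at least half the replicates too; tested in HMLE shEcad cells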;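 note: 0% = median of negative and 100% = median of positive control wells; the first replicate is given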
MT1-MMP act inh = MT1-MMP (human) activation inhibition; P50281; HT1080 RFP-PRO-GFP cells, GFP/RFP ratio fluorescence, overnight; percent of plate control window, DMSO zero; GFP/RFP ratio change, % at 20 µM; hit rate 0.061% among 360,000;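 active = GFP/RFP ratio change of at least 30% with cell ATP level not reduced by more than half and red fluorescence within 50% of control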; note: strong numbers were not always called active
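Assay system: HT1080 RFP-PRO-GFP cells | Dosing: 20 µM single dose, 1% DMSO | Incubation: Cells overnight before dosing, compound overnight, 37 °C, 5% CO2 | Evaluation: GFP/RFP fluorescence ratio | Control set: DMSO-only wells and HT1080 RFP-L50D-GFP cell wells as references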
eIF4H inh retest = second read-out of eIF4H inh, no call of its own (marks repeat the call); inhibition, %; compound at 20 µM; confirmation average;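 mean of two retest wells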
PABP FP inh retest = second read-out of PABP FP inh, no call of its own (marks repeat the call); inhibition, %; compound at 20 µM; confirmation repeats;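 mean of two retest wells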
MT1-MMP act inh RFP = second read-out of MT1-MMP act inh, no call of its own (marks repeat the call); RFP signal change, %; measured here: RFP expression control read;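 0 = vehicle wells; hits needed this value within 50% of zero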
The depositor's hits bear a star; i = inactive; / = no result given; & = joins results of further samples.

SMILES	Rce1 inhib	UUG fidelity	eIF4H inh	PABP FP inh	Env fusion inh	CSC inhib	MT1-MMP act inh	MT1-MMP act inh RFP	others
CCCCCN(C(=O)CCC(=O)OCC(=O)N(C)C1CCCCC1)c1c(N)n(CCCC)c(=O)[nH]c1=O	i	/	/	/	-66.4	-2.2	-3.8	-2.2
CCn1c(C(C)NS(=O)(=O)c2ccc(Cl)cc2)n[nH]c1=S (configuration not stated)	i	-9.9	-0.4	3.6	5.8	1.1	1.2	2.5
Cc1ccc(-n2nc3c(c2NC(=O)CC(C)C)CS(=O)(=O)C3)c(C)c1	i	6.1	0.6	5.7	-0.1	-4.4	-3.8	5.2
Cc1nn(C(C)C(=O)NCC2CCCO2)c(C)c1[N+](=O)[O-] (configuration not stated)	i	/	1.6	4.7	-11.0	-7.8	-0.7	1.7
CC(=O)Nc1ccc(CN2CCN(CC=C(C)C)C(CCO)C2)cc1 (configuration not stated)	i	2.4	-4.7	9.5	0.2	-8.9	-4.7	1.8
CSc1ccc(CN(C)Cc2nc3cc(C(F)(F)F)ccc3c(=O)[nH]2)cc1	i	-6.3	2.6	-1.6	1.5	-7.7	2.6	-6.1
COc1ccc(-n2nnnc2C(CCSC)N2CCN(C/C=C/c3ccccc3)CC2)cc1 (configuration not stated)	/	0.1	/	/	-13.5	/	-0.6	-6.2
O=C1NC(=S)N(c2cccc(Cl)c2)C12CCCCC2	i	/	-17.6	5.8	4.0	-16.4	-1.6	0.4
CCOc1ccc(Cl)cc1-c1cc(C(=O)NCCc2ccncc2)[nH]n1	/	-15.4	/	/	24.5	/	-3.8	-4.1
COc1ccc(C(=O)N2CCN(Cc3ccccc3[N+](=O)[O-])CC2)cc1	i	-20.3	4.8	10.8	-21.7	1.3	-4.7	0.1
CN(C(=O)c1cccc(NC(=O)c2cccs2)c1)c1ccccc1	i	-2.6	-0.7	11.1	-6.4	-1.4	5.2	-1.2
CCNC(=O)/C(C#N)=C/c1c(N2CC(C)OC(C)C2)nc2ccccn2c1=O (configuration not stated)	i	-0.5	-6.7	-8.6	-6.0	8.9	1.5	4.4
CNC(=O)CSc1nnc(-c2ccco2)n1-c1cccc(C)c1	i	-4.9	-4.4	2.7	-8.5	5.5	-5.0	-0.8
CCc1ccc(C(=O)COC(=O)CNC(=O)CNC(=O)Cc2ccccc2)cc1	i	-19.9	-0.5	2.4	-62.5	3.8	0.5	5.0
CCOc1ccc(S(=O)(=O)N2CCCCC2)cc1NC(=O)Cc1cc(OC)c(OC)c(OC)c1	/	-5.2	/	/	19.2	/	4.9	-3.3
COc1ccc(C(=O)NCC(=O)OCC(=O)c2ccc3c(c2)NC(=O)CO3)cc1OC	i	/	4.9	5.3	-0.5	0.3	2.8	5.1
O=C(NCc1cccnc1)c1sc2ccccc2c1Cl	i	-1.9	7.5	0.1	19.6	7.3	4.3	0.2
C=CCSc1nc(C)c(CC(=C)C)c(=O)[nH]1	i	/	0.9	8.3	3.8	-7.1	0.2	3.0
CCC(C(=O)Nc1cccc(S(=O)(=O)N(C)c2ccccc2)c1)c1ccccc1 (configuration not stated)	/	-14.9	/	/	/	15.2	-1.5	-6.4
Cc1ccc(NC(=S)NC(C)CCc2ccccc2)cc1C (configuration not stated)	i	/	-12.2	-6.9	-17.9	-10.9	1.2	-4.9
Clc1cccc(-c2cc3nc4c(c(N5CCOCC5)n3n2)CCCC4)c1	i	-18.7	9.5	-0.4	/	24.3	-6.0	-7.9
COc1ccccc1OCc1ccc(C(=O)c2ccccc2)cc1	i	-14.9	-4.2	-2.1	11.7	-8.2	-0.2	-2.9
COc1cc(OC)cc(C(=O)Nc2cccc(N3CCCC3)c2)c1	i	-23.4	-8.5	-6.3	/	-12.7	-1.5	3.1
Cc1c(Cl)cnc(NC(=O)CSc2nnc3ccccn23)c1Cl	/	1.6	-2.6	9.8	/	/	-0.8	4.8
CCCn1c(C)cc(C)c(C#N)c1=O	i	/	10.0	2.3	/	-3.6	-3.1	-0.9
CCc1c(C)sc2nc(SCC(=O)Nc3cc(C)on3)n(CCOC)c(=O)c12	i	-20.4	0.1	-1.0	/	-17.0	-2.8	-3.9
CCOC(=O)C1=NN(C(=O)COc2ccccc2)C(O)(c2ccc(Cl)cc2)C1 (configuration not stated)	i	/	-11.3	-8.2	14.0	-5.8	-4.7	0.2
C/C(CC(=O)Nc1cccnc1)=N\NC(=O)C(=O)Nc1cccc(C)c1	i	/	8.8	1.2	1.1	-14.4	-0.1	0.8
Cc1sc(NC(=O)C2CCCCC2C(=O)O)c(C(N)=O)c1-c1ccc(C(C)(C)C)cc1 (configuration not stated)	i	/	1.9	-6.2	/	-9.9	6.2	3.0
O=[N+]([O-])c1cccc(Nc2c([N+](=O)[O-])ccc3nonc23)c1	i	-13.1	-6.3	-8.9	-16.7	-5.9	4.7	-2.2
O=S(=O)(c1ccc(Cl)cc1)N1CCC(N2CCCCCC2)CC1	i	-22.6	7.8	5.7	-18.3	56.7	-3.7	5.0
CCOC(=O)Cn1cc(/C=N/NC(=O)c2ccc(C#N)cc2F)c2ccccc21	i	2.0	0.1	-1.4	18.6	-8.4	5.1	4.3
Cc1ccc(NC(=O)CCCn2c(=O)oc3ccccc32)c(O)c1	i	-4.7	-9.2	2.8	-10.8	1.8	1.8	-2.7
COc1ccc(CN(C)C[C@@H]2OCCCC[C@H](C)Oc3ccc(NC(=O)Nc4ccc(F)cc4)cc3C(=O)N([C@H](C)CO)C[C@H]2C)cc1	/	10.6&20.3	/	/	7.6	/	-1.8	-1.6
NC(=O)c1ccc(S(=O)(=O)N2CCSCC2)cc1	i	-15.0	-5.9	-6.0	-11.2	-14.0	4.3	2.5
O=C(N/N=C/c1ccc(F)c(F)c1)c1cccc(S(=O)(=O)N2CCCCC2)c1	/	-25.5	/	/	2.4	/	3.3	-6.5
Cn1c(SCc2ccc(F)cc2)nnc1-c1ccccn1	i	3.1	10.8	5.1	-146.6	-6.2	4.2	0.0
Cc1nc(C)c(-c2ccc(SCC(=O)Nc3ccccc3)nn2)s1	i	-7.2	-5.4	-1.3	16.7	0.8	-2.9	-15.5
COc1ccc(-c2noc(C3CCCN(C(=O)CCc4ccccc4)C3)n2)cc1 (configuration not stated)	i	12.9	-4.7	9.9	14.1	-6.5	0.7	-5.2
CCOc1ccccc1OCCCOc1ccc(C)cc1Cl	i	-10.6	-9.1	-7.2	/	3.0	-5.2	-3.8
COC(=O)c1cn(C(=O)/C=C/c2ccc(OC)c(OC)c2)c2ccccc12	i	/	0.8	-5.9	-1.0	58.9	5.8	1.8
N#Cc1ccccc1OCc1cccc(S(=O)(=O)N2CCOCC2)c1	/	-7.2	/	/	18.3	/	-1.7	-6.5
O=C(COC(=O)c1cc(=O)[nH]c2ccccc12)Nc1ccc(F)cc1	/	12.0	/	/	1.2	-19.5	2.3	1.6
CCOC(=O)C1=C(C)N=c2s/c(=C3/C(=O)Nc4ccccc43)c(=O)n2C1c1ccc(C)cc1 (configuration not stated)	i	-23.2	-9.7	3.5	-31.9	2.5	5.0	3.6
COc1ccc(N(CC(=O)O)S(=O)(=O)c2cccnc2)cc1	i	/	-7.5	-0.5	/	/	-3.1	0.1
COc1ccccc1NS(=O)(=O)c1cc(NC(=O)c2sccc2C)ccc1N1CCOCC1	i	-14.7	0.1	1.0	4.3	0.1	-1.6	-2.1
C=CCN1C2CCCC1CC(NC(=O)Nc1cc(C)cc(C)c1)C2 (configuration not stated)	i	/	0.5	13.1	11.8	7.1	-1.1	3.5
CCC1=NN(C(=O)C(=O)NCCc2ccccc2)C(O)(C(F)(F)F)C1 (configuration not stated)	i	-16.4	-4.3	4.4	0.0	-0.1	2.9	2.5
CN(C)S(=O)(=O)c1ccc(S(=O)(=O)N(CC(=O)Nc2ccccc2)Cc2ccco2)cc1	i	-7.8	2.9	-9.6	/	13.6	2.7	3.3
Cn1c(CCC(=O)OCC(=O)NCc2ccccc2Cl)nc(=O)c2ccccc21	i	/	2.2	-1.1	8.9	-9.7	-0.9	0.5

(continued)
SMILES	Rce1 inhib	UUG fidelity	eIF4H inh	PABP FP inh	Env fusion inh	CSC inhib	MT1-MMP act inh	MT1-MMP act inh RFP	others
CS(=O)(=O)Oc1ccc2c(c1)O/C(=C\C=C\c1ccccc1)C2=O	i	-9.7	53.7	24.4	-3.4	12.5	-18.4	-8.7	eIF4H inh retest=1.3;PABP FP inh retest=29.2
CS(=O)(=O)c1ccc(-c2sc3ccccc3c2C(=O)NCCCN2CCOCC2)cc1	/	-3.6	/	/	-8.0	/	2.2	2.6
CC(=O)NC(CC(=O)NCCCn1ccc2ccccc21)c1ccccc1 (configuration not stated)	i	-8.3	11.0	10.1	7.5	-0.9	3.2	3.1
CC(C)=C1C(=O)NN(c2ccc(F)c(Cl)c2)C1=O	i	-17.9	14.5	39.8	/	4.4	-4.0	-0.3
COc1ccc(NC(=O)C(=O)NNC(=O)c2ccc(Cl)cc2Cl)cc1	i	-10.9	-4.1	1.4	9.1	0.9	-6.4	0.5
CCn1c(=O)c(C(=O)NCc2ccccc2OC)c(O)c2ccccc21	i	-11.5	6.8	2.3	-3.3	75.6*	-0.8	-1.4
O=c1[nH]c(CN2CCOCC2)nc2cc(Cl)ccc12	i	-17.1	-5.8	3.5	7.5	-37.6	0.2	-0.9
Cc1nc2nc(Cc3ccccc3)[nH]n2c(=O)c1Cc1ccccc1	/	-27.9	-6.3	2.1	/	0.4	6.0	0.9
C=CCNc1nc(N2CCCC2)nc2ccccc12	i	/	-6.8	-3.2	/	8.3	0.2	-1.9
c1n[nH]c(NCc2ccc3c(c2)OCO3)n1	i	-16.4	-2.5	-9.0	-82.9	-10.3	2.3	1.3
C/C=C/C(=O)N1c2ccccc2C(C)=CC1(C)C	i	-18.9	-0.5	0.1	-11.8	14.3	-5.1	-4.8
COc1ccccc1CNC(=O)CCC(=O)n1ncc2cc(C)ccc21	i	-14.7	-4.7	9.6	11.3	/	-1.0	6.7
COc1cc(-c2nc(S(=O)(=O)c3ccc(C)cc3)c(N(C)C)o2)cc(OC)c1OC	i	-17.2	34.9	12.9	/	2.0	-1.1	-5.4
COc1ccc(NS(=O)(=O)c2ccc3c(c2)CCC(=O)N3)c(OC)c1	i	-17.7	6.5	8.4	/	3.0	-5.2	0.3

A portion of the library; count on the stated rates, not on these rows.
